Choline anaer gr = inhibitors of anaerobic choline-dependent gram-negative bacterial growth; Gram-negative bacterium anaerobic choline minimal medium, absorbance growth; stronger effect = lower value; many inactives read as strong as hits in the columns shown; 55,000 tested, 0.2% active; calls only;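 active = growth z-score on choline under -2 at 7 or 20 h with little or no fall on glycerol, limits in tiers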;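 also: stock transfer was 300 nL into about 50 µL; the organism is E. coli; final concentration not given here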
Choline anaer gr early = also measured in Choline anaer gr; calls as there; z-score; measured here: choline growth z-score, timepoint 1;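 score of optical density at 7 h as mean of two plates; lower means less growth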
Active calls of the source: *; i = inactive. A portion of the library; the hit share may differ from the screen's.

SMILES	Choline anaer gr	Choline anaer gr early
O=c1c(S(=O)(=O)c2ccc(F)cc2)c[nH]c2c(F)cccc12	i	0
O=C(Nc1ccc(Br)cc1F)C1Oc2ccccc2NC1=O (stereo unspecified)	i	-0.34
Cc1ccccc1CSc1nnc2c(S(=O)(=O)N3CCCC3)cccn12	i	0.41
O=C1CCSc2ccc(S(=O)(=O)N3CCCC(CN4CCc5ccccc5C4)C3)cc2N1 (stereo unspecified)	i	-1.67
COc1ccc2c(c1)CCc1c-2n[nH]c1C(=O)N1CCN(C2CCCCC2)CC1	i	0.13
Cc1cc2nc(COc3cc(NC(=O)c4ccc(C(C)(C)C)cc4)ccc3C)cc(=O)n2o1	i	0.15
O=S(=O)(c1cccc(Cl)c1)c1nnn2c1nc(NCC1CCCO1)c1sccc12 (stereo unspecified)	i	-0.65
Cc1ccc(C(=O)Cn2nc3n(CC(C)C)c(=O)c4ccccc4n3c2=O)c(C)c1	i	-0.75
CCC(=O)N1c2ccccc2NC2=C(C(=O)CC(c3ccccc3F)C2)C1c1ccc(C)cc1 (stereo unspecified)	i	-1.94
Cc1nnc(SCC(=O)NCc2ccc3c(c2)OCCCO3)n1-c1ccccc1	i	0.05

Brought forward from above: two compounds, then new ones.
SMILES	Choline anaer gr	Choline anaer gr early
CCC(=O)N1c2ccccc2NC2=C(C(=O)CC(c3ccccc3F)C2)C1c1ccc(C)cc1 (stereo unspecified)	i	-1.94
Cc1nnc(SCC(=O)NCc2ccc3c(c2)OCCCO3)n1-c1ccccc1	i	0.05
O=C(C1CCN(c2nccc3c2ccn3Cc2ccccc2)CC1)N1CCN(c2ccc(F)cc2)CC1	i	-0.42
C=CCn1c(C2CCCO2)nc2ccccc21 (stereo unspecified)	i	-0.38
Cc1nc(Nc2ccc(NC(=O)C(C)(C)C)cc2)cc(N2CCOCC2)n1	i	0.64
O=C(NCc1ccccn1)C1CCN(c2ncccc2-c2nc(-c3ccccc3)no2)CC1	i	0.74
CCOC(=O)C1CCN(c2nc3ccccc3n3c(=O)n(CC(=O)N4CCCCC4)nc23)CC1	i	0.52
Cc1sc(-c2nc(-c3ccc(F)cc3)no2)cc1S(=O)(=O)NCc1ccc2c(c1)OCO2	i	0.19
O=C(c1cnn(-c2ccccc2)c1-n1cccc1)N1CCC(Cc2ccccc2)CC1	i	0.22
CCCc1cc(C2CCCN2C(=O)c2c(-c3c(F)cccc3Cl)noc2C)no1 (stereo unspecified)	i	0.24
Cc1ccc(-c2csc(Cc3nc(-c4ccccc4)no3)n2)cc1C	i	0.42
Cc1c(C)n(-c2ccccc2)c2nc(C(=O)Nc3ccccc3Cl)nc(N3CCCC3)c12	i	-0.57
Cc1ccc(C)c(S(=O)(=O)N2CCc3cc4cc(C)ccc4nc32)c1	i	0.77
CCSc1nnc2n(C)c(=O)c3sccc3n12	i	-0.62
Cc1ccc(S(=O)(=O)c2nc(Cc3ccccc3)oc2N2CCC(C)CC2)cc1	i	1.68
O=C(CN1CCn2nc(-c3ccccc3)cc2C1=O)NCCCN1CCOCC1	i	0.24
CC1CCC(NC(=O)C2(C)Cn3c(cc4occc43)C(=O)N2C2CCCCC2)CC1 (stereo unspecified)	i	-0.34
COC(=O)c1cc(S(=O)(=O)NCCC(=O)Nc2cc(Cl)ccc2C)cn1C	i	0.27
Cc1cc(C)c(C(=O)N2CCCC(C(=O)N3CCC(C)CC3)C2)[nH]1 (stereo unspecified)	i	0.35
NS(=O)(=O)c1ccc(CCNC(=O)CSc2nc(NCc3ccccc3)c3ccccc3n2)cc1	i	-0.72
CCOC(=O)c1c(C)oc2ncnc(NCC(C)O)c12 (stereo unspecified)	i	-1.29

Entries of single compounds, looked up by structure. Order of screens: Choline anaer gr	Choline anaer gr early
`Cc1ccc(C)c(S(=O)(=O)N2CCc3cc4cc(C)ccc4nc32)c1` as listed: i	0.77
`CCOC(=O)c1c(C)oc2ncnc(NCC(C)O)c12` (stereo unspecified) as listed: i	-1.29
`CCSc1nnc2n(C)c(=O)c3sccc3n12` as listed: i	-0.62
`O=C(CN1CCn2nc(-c3ccccc3)cc2C1=O)NCCCN1CCOCC1` as listed: i	0.24
`COC(=O)c1cc(S(=O)(=O)NCCC(=O)Nc2cc(Cl)ccc2C)cn1C` as listed: i	0.27

4 compounds picked at random from those above:
SMILES	Choline anaer gr	Choline anaer gr early
C=CCn1c(C2CCCO2)nc2ccccc21 (stereo unspecified)	i	-0.38
O=C(Nc1ccc(Br)cc1F)C1Oc2ccccc2NC1=O (stereo unspecified)	i	-0.34
CCC(=O)N1c2ccccc2NC2=C(C(=O)CC(c3ccccc3F)C2)C1c1ccc(C)cc1 (stereo unspecified)	i	-1.94
Cc1nc(Nc2ccc(NC(=O)C(C)(C)C)cc2)cc(N2CCOCC2)n1	i	0.64
